CSC inhib = blocks cancer stem cells; AID 2717; 300,000 compounds, 1.1% hits; inhibition, % at 7.5 µM; cancer stem cell-like cells viability, luminescence;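 active = mean at 75% or more and at least half the replicates too; tested in HMLE shEcad cells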;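 note: 0% = median of negative and 100% = median of positive control wells; the first replicate is given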
Rce1 inhib = inhibitors of yeast Ras-converting enzyme. Q03530. yeast membranes, quenched prenylated peptide cleavage fluorescence. calls only. 290,000 compounds, 0.27% hits;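 active = fall in fluorescence gain of 50% or more versus controls, with final raw signal at or below 3038400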;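 note: plate controls were neutral control wells for no effect and wells lacking membranes for full effect; tested at 10 µM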
Target sequence (Q03530 whole entry, looked up): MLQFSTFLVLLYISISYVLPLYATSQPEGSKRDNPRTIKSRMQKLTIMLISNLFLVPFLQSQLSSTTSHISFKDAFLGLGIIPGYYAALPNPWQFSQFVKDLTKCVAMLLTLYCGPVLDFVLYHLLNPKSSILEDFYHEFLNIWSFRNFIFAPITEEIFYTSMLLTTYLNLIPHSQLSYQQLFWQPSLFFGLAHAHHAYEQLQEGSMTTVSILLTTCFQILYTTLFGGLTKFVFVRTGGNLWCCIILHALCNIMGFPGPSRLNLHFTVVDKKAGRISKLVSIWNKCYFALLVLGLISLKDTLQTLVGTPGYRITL
MT1-MMP act inh = inhibitors of human MT1-MMP activation; GFP/RFP ratio change, % at 20 µM; HT1080 RFP-PRO-GFP cells, GFP/RFP ratio fluorescence, overnight; percent of plate control window, DMSO zero; P50281; AID 651647; 360,000 compounds, 0.061% hits;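 active = GFP/RFP ratio change of at least 30% with cell ATP level not reduced by more than half and red fluorescence within 50% of control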; note: strong numbers were not always called active
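Assay system: HT1080 RFP-PRO-GFP cells. Benchmarks: DMSO vehicle wells and RFP-L50D-GFP reporter cell wells. Times: overnight cell settling, then overnight compound exposure, 37 °C, 5% CO2. Compound: 20 µM single dose, 1% DMSO. Read-out basis: GFP/RFP fluorescence ratio.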
HIV Env fusion = inhibitors of HIV Env-mediated cell fusion; HeLa-JRFL Env/CEM21 cell fusion, luciferase; inhibition, % at 12.3 µM; 360,000 compounds, 1.1% hits; AID 651610;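 active = mean replicate inhibition score of at least 50 and every replicate individually at or above 50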;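 note: 0% = plate neutral controls and 100% = maraviroc near 300 nM; one replicate is shown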
UUG fidelity = yeast start codon fidelity modulation | S. cerevisiae UUG-firefly luciferase reporter, luminescence/redox ratio | activity score, % at 18.7 µM | 350,000 compounds, 0.13% hits | AID 602363;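 active = replicate mean at a twofold rise or more, about +100% in these data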;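 note: firefly luciferase made from a UUG start codon reports start codon fidelity; reporter light over untreated wells divided by growth signal over untreated wells; some hits fall short of that in this replicate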
eIF4H inh = inhibitors of RNA binding by human eIF4H; eIF4H fluorescence polarization binding assay; Q15056; 290,000 compounds, 0.94% hits; inhibition, % at 35 µM;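 active = 50% or more with normal probe brightness, or confirmed in later tests; about a fifth of its hits are not listed in these tables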;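 note: calls also rest on retests at 20 µM and on dose response follow-up; 0% = protein and probe with vehicle and 100% = probe without protein; strong numbers were not always called active; many hits fall short of the cut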
PABP FP inh = PABP-poly(A) binding inhibition; P11940; AID 2014; 290,000 compounds, 1% hits; PABP-poly(A) RNA binding, fluorescence polarization; inhibition, % at 35 µM;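 active = 50% or more with normal probe brightness, or confirmed in later tests; about a fifth of its hits are not listed in these tables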;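 note: calls also rest on retests at 20 µM and on dose response follow-up; controls were probe without protein and protein plus probe with vehicle; some compounds called inactive have numbers as strong as hits; many hits fall short of the cut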
eIF4H inh retest = also measured in eIF4H inh; calls as there; inhibition, %; compound at 20 µM; confirmation average;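 mean of two retest wells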
PABP FP inh retest = recorded beside PABP FP inh, whose call it bears; inhibition, %; compound at 20 µM; confirmation repeats;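 mean of two retest wells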
MT1-MMP act inh RFP = recorded beside MT1-MMP act inh, whose call it bears; RFP signal change, %; measured here: RFP expression control read;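 0 = vehicle wells; hits needed this value within 50% of zero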
The depositor's hits bear a star; i = inactive; . = not tested or not shown; & = joins results of further samples. This is a subset (hit frequency here may not be typical).

SMILES	CSC inhib	Rce1 inhib	MT1-MMP act inh	MT1-MMP act inh RFP	HIV Env fusion	UUG fidelity	eIF4H inh	PABP FP inh	others
Cc1cccc(C)c1OCc1cc(C(=O)N2CCN(c3ccccn3)CC2)no1	-6	i	1	1	-16	5	-1	-6
COc1cccc(-c2nn(-c3ccc(F)cc3)cc2C(=O)NCC2CCCO2)c1 (configuration not stated)	1	i	1	-3	3	-22	.	.
NNC(=O)c1cc2nc(-c3cccs3)cc(C(F)(F)F)n2n1	-7	.	1	-4	-12	-33	1	13
CC(C)COC(=O)CNc1n[nH]c(=S)[nH]c1=O	2	i	9	1	.	-18	-1	16
O=C(CN1C(=O)NC(Cc2c[nH]c3ccccc23)C1=O)NCCc1ccc(F)cc1 (configuration not stated)	5	i	1	-1	23	-15	-7	0
COc1ccc(OC)c(C(=O)NC(CC(N)=O)c2ccc(N3CCN(c4ccccn4)CC3)c([N+](=O)[O-])c2)c1 (configuration not stated)	6	i	3	0	.	-10	2	-4
Cc1nn(C(C)(C)C)c(C)c1/C=N/OC(=O)Nc1ccc(Cl)c(Cl)c1	12	i	0	-4	65*	-49	-1	4
COc1ccc([N+](=O)[O-])cc1NCc1ccccc1	7	i	20	12	10	-25	-8	0
CCCC(C)C(=O)Nc1ccc(S(=O)(=O)Nc2nccc(C)n2)cc1 (configuration not stated)	-13	i	3	6	-8	.	-6	-7
O=C(NCc1ccc2c(c1)OCO2)c1cc(-c2ccccc2)on1	.	.	4	6	.	-10	1	3
CCCc1nnc(NC(=O)CCC(=O)NC2CCCCCC2)s1	-1	i	-2	0	-6	.	-13	-2
CC(C)(C)NC(=O)C1CCN(C(=O)c2ccc(Br)cc2)CC1	4	i	12	5	-8	.	-8	5
COc1ccc(NC(=O)c2ccc(N3CCOCC3)nc2)cc1	-9	i	-1	-3	6	4	-4	-8
CC(C)C[C@H](NC(=O)OC(C)(C)C)C(=O)NCC1CCC(C(=O)N[C@@H](Cc2ccccc2)C(=O)O)CC1 (some centres not stated)	3	i	-1	0	15	19	1	-2
CCn1c(SCC(=O)Nc2cc(C)on2)nc2c1c(=O)n(C)c(=O)n2C	.	i	-2	0	-36	-7	4	8
COC(=O)C1=C(C(=O)OC)[C@@H]2N(C)c3ccccc3[C@@]23C[C@@H](C(=O)OC)N(C(C)=O)C3=N1	-1	i	1	0	2	-23	-7	3
Cc1cc(/C=N/NC(=O)C(O)(c2ccccc2)c2ccccc2)c(C)n1-c1ccc(C(=O)O)cc1	7	i	1	6	1	.	44	2
Cc1nc2ccc(-c3nc4cc(N)ccc4o3)cc2[nH]1	-5	i	17	5	-242	-52	6	5
COC(=O)[C@H](CCSC)NC(=O)Cn1cnc2c(OCc3ccccc3)ncnc21	.	.	1	2	-27	-7	.	.
CCOC(=O)N1CCC(NC(=O)c2cc(C(=O)NCc3cccc(Cl)c3)ccc2CO)CC1	.	i	-5	-17	27	-14	-7	3
COc1cc2c(cc1OC)C(C)N(C(=O)Nc1ccc(F)cc1)CC2 (configuration not stated)	.	i	2	2	-7	-2	-2	3
COc1ccc([C@H]2CC(=O)C=C(c3cccc(Cl)c3)C2)cc1OC	10	.	5	-7	-28	-5	.	.
CC1CCCCC1NC(=O)c1ccc(NC2=NC3CS(=O)(=O)CC3S2)cc1 (configuration not stated)	0	i	0	1	-8	-10	-14	1
O=C(O)CSCNC(=O)CC12CC3CC(CC(C3)C1)C2	-9	i	4	2	-30	-18	-8	1
CN(C)c1ccc(C(CNC(=O)COc2ccc(Cl)cc2)N2CCCC2)cc1 (configuration not stated)	-7	i	-1	6	21	-14	-12	0
COc1ccc(C[C@H](C)NC[C@@H](O)c2ccc(O)c(NC=O)c2)cc1	-7	i	4	0	-60	-2	.	.
Cc1nc(SCc2ccc(O)c([N+](=O)[O-])c2)c([N+](=O)[O-])[nH]1	-11	i	0	0	-7	-18	-6	8
O=C(NC(=S)NC1CCCCCCCCCCC1)c1cccnc1	4	i	0	1	.	4	-5	-5
C[C@H]1CN([C@@H](C)CO)C(=O)CCCn2cc(nn2)CO[C@@H]1CN(C)S(=O)(=O)c1cccc(F)c1	.	.	3	1	38	-22&-4	.	.
O=c1oc(CCCO)cc2ccc(/C=C/c3cccc([N+](=O)[O-])c3)cc12	-1	.	9	1	-237	-20	.	.
O=C(COC(=O)c1ccc([N+](=O)[O-])cc1)NC12CC3CC(CC(C3)C1)C2	7	.	0	3	-21	-3	.	.
CCC(=O)Nc1ccc(C(=O)NNC(=O)C2CCCCC2)cc1	-4	i	-6	3	-10	-5	-8	-5
CCN(CC)C(=S)SCC(=O)c1ccc(Br)cc1	18	.	-2	0	-7	-18	-5	29
CN(C)S(=O)(=O)c1cccc(NC(=O)c2sccc2-c2ccccc2)c1	20	i	2	1	-308	-5	-4	-4
CCOC(=O)Nc1ccc2c(c1)N(C(=O)CN(C)C)c1ccccc1S2	.	.	-4	1	-1	-8	.	.
Cc1cc2cc(CN(CCN3CCOCC3)C(=O)Nc3ccccc3F)c(=O)[nH]c2cc1C	-2	i	2	2	.	.	-11	-16

2 records picked at random from the list so far:
SMILES	CSC inhib	Rce1 inhib	MT1-MMP act inh	MT1-MMP act inh RFP	HIV Env fusion	UUG fidelity	eIF4H inh	PABP FP inh	others
CN(C)c1ccc(C(CNC(=O)COc2ccc(Cl)cc2)N2CCCC2)cc1 (configuration not stated)	-7	i	-1	6	21	-14	-12	0
COc1ccc(C[C@H](C)NC[C@@H](O)c2ccc(O)c(NC=O)c2)cc1	-7	i	4	0	-60	-2	.	.

Carrying on:
SMILES	CSC inhib	Rce1 inhib	MT1-MMP act inh	MT1-MMP act inh RFP	HIV Env fusion	UUG fidelity	eIF4H inh	PABP FP inh	others
CC(=O)Nc1ccc(OCC(O)CN2CCN(c3ccc(C)c(Cl)c3)CC2)cc1 (configuration not stated)	120*	i	14	4	.	.	5	-5
C=C(c1ccccc1Cl)[n+]1ccccc1	4	i	5	-1	11	-11	6	6
Cc1cc(Cl)ccc1OCC(=O)Nc1nc(-c2cccnc2)cs1	2	i	4	4	7	.	-1	2
COc1cccc(C(C(=O)NCC2CCCO2)N(C(=O)Cn2nnc3ccccc32)c2ccccc2C(C)=O)c1OC (configuration not stated)	.	i	-3	0	-2	0	10	2
COc1ccc(CNC(=S)N2CCN(S(=O)(=O)c3cccc(F)c3)CC2)cc1	-1	i	5	-2	17	.	-2	-6
Cc1ccc(NC(=O)COC(=O)C2CC3C=CC2C3)cc1S(=O)(=O)N1CCCCC1 (configuration not stated)	-5	i	1	-1	-6	7	-13	14
Cc1nc2ccccc2c(C)c1C(=O)c1ccccc1	-8	i	-6	-8	23	.	3	-9
Cc1ccc2nc(SCC(=O)c3c(C)[nH]c4ccccc34)[nH]c2c1	-3	i	4	-4	-13	.	6	-8
CCC(CO)NC1=CC(=O)CCC1 (configuration not stated)	8	i	1	4	-7	.	12	-1
COc1ccc(C(=O)Nc2cc(C)on2)cc1	.	i	1	4	-32	-35	-3	-3
Cc1nn2c(NCCCN3CCOCC3)c3c(nc2c1-c1ccccc1)CCC3	72	i	-4	-4	-19	-18	-6	7
Brc1ccccc1OCCOc1cccc2cccnc12	26	i	1	-2	-44	.	5	2
COCCn1c(C)cc(/C=C2/NC(=O)N(c3cccc(Cl)c3)C2=O)c1C	15	i	-7	2	-29	.	-4	-8
CCOC(=O)N1CCN(C(=O)CCc2ccc(S(=O)(=O)NC(C)(C)C)cc2)CC1	-11	i	-2	-1	3	0	32	0
O=C(NCC(c1cccnc1)N1CCOCC1)c1ccco1 (configuration not stated)	-17	i	0	1	-13	-8	6	-3
COc1cccc(C(C(=O)NCC2CCCO2)N(CC2CCCO2)C(=O)CN2C(=O)c3ccccc3S2(=O)=O)c1 (configuration not stated)	-5	i	-1	2	24	.	0	2
O=C(Cn1cnc2c(nnn2-c2ccc(F)cc2)c1=O)N1CCCc2ccccc21	1	i	-4	-5	-26	1	-3	-10
Cc1cccc(NC(=S)N2CCCCC2c2cccnc2)c1C (configuration not stated)	-23	i	-3	1	-3	-39	-5	3
CC(=O)Nc1ccc(C(=O)OCC(=O)NC2CCCCCCC2)cc1	8	i	1	2	8	.	-3	11
O=[N+]([O-])c1cccc(-c2nc3ccccc3s/c2=N/O)c1	.	i	-1	-3	-16	-7	-6	13
CN(C)c1ccc(C(=O)Nc2cc(C(F)(F)F)ccc2-n2cncn2)cc1	3	i	4	0	.	-8	-3	2
Cc1ccc(NS(=O)(=O)c2c(C(=O)N3CCCCCC3)c(C)n(C)c2C)c(C)c1	9	i	-4	0	7	0	-4	0
O=C(O)COn1c(-c2ccccc2)nc2ccc(Cl)cc21	-9	.	-3	2	-58	.	-2	23
NC(=O)c1ccc(C(F)(F)F)n(Cc2ccc(F)c(F)c2)c1=O	8	i	0	-1	-11	.	-4	6
CCOc1ccc(-c2csc(NC(=O)C3CCCO3)n2)cc1 (configuration not stated)	-1	i	23	-3	-24	5	-12	10
O=C(CSc1nc2ccccc2s1)Nc1ccc(C(=O)O)cc1	7	i	1	4	4	-21	-4	12
CCCC(=O)Nc1cccc(NC(=O)CN2CCN(c3ccccc3OC)CC2)c1	.	i	4	4	.	0	-2	-2
Cc1ccc(-c2ccc(/C=N/NC(=O)Cc3nnc(N)s3)o2)cc1Cl	-5	i	0	3	-18	-10	46	10
Cc1c(CC(=O)O)c(=O)oc2c(C)c(OCc3ccc(F)cc3Cl)ccc12	.	i	-7	4	8	-12	51	2	eIF4H inh retest=17;PABP FP inh retest=8
CCCCNC(=O)c1c(O)c2cccc3c2n(c1=O)CCC3	6	i	1	0	.	-11	-8	6
COc1ccc(C(NC(=O)CNC(C)=O)C(=O)Nc2ccc3c(c2)OCCO3)cc1 (configuration not stated)	-9	i	-2	-2	.	-1	0	-4
c1ccc(OCc2nc3ccccc3s2)cc1	-11	i	0	4	-114	-2	-10	-10
COc1ccc(OCCn2c(N)nc3ccccc32)cc1	-12	i	8	-3	2	-15	-10	3
O=c1c2ccccc2sn1-c1cccc(Cl)c1	.	.	-2	-18	-3	-5	.	.
O=C(N[C@@H](Cc1ccccc1)C(=O)OCc1ccccc1)c1nc[nH]c1C(=O)N[C@@H](Cc1ccccc1)C(=O)OCc1ccccc1	42	i	6	0	33	-12	1	11
CC1CCCC(NC(=O)C2CCN(S(=O)(=O)c3cnc[nH]3)CC2)C1C (configuration not stated)	-22	i	-2	6	0	-2	-13	9
O=C(Nc1cccc(F)c1)N1CCN(C/C=C/c2ccccc2)CC1	2	i	5	2	-29	-15	2	-6
COc1ccc(Oc2cc(C)nc(Cl)n2)nn1	4	i	-1	-1	5	.	-12	7
COc1cc2c(cc1O)CCN(C(=O)CSc1nncn1C)[C@@H]2C	-9	.	-1	6	.	1	.	.
Cc1ccccc1NC(=O)NC1(C(=O)N2CCC(C(N)=O)CC2)CCCCC1	2	i	2	1	0	-12	3	0
O=C(CCS(=O)(=O)c1cccc2nsnc12)N1CC(=O)N(CCc2ccccc2)C(=O)C1	-1	i	-6	2	-29	.	-1	16
CNc1cncc(-c2ccoc2)n1	.	.	-7	-2	-7	-16	.	.
Cc1cc(-n2c(SCC(=O)NCCC3=CCCCC3)nc3n[nH]c(C)c3c2=N)ccc1Cl	29	i	7	-4	9	-10	-10	-3
c1cc2c(cc1-c1[nH]ncc1CN1CC3C[C@@H]4CC1C[C@H](C3)C4)OCO2	-14	i	5	8	16	.	6	-2
O=C(CCC(=O)NNC(=S)Nc1ccccc1)NCc1ccccc1	-7	i	-6	-1	-41	-20	-2	6
Cc1c(C(=O)NCc2ccc3c(c2)OCO3)oc2ccc(S(=O)(=O)N3CCC(C)CC3)cc12	-1	i	1	-9	.	-19	3	11
CCOc1cc2[nH]c(=O)n(CCCCC(=O)NC3CCCCCC3)c(=O)c2cc1OCC	-8	i	0	-5	-12	-10	-3	-6
